GIRK2 act – activators of human GIRK2 potassium channels; G protein-activated inward rectifier potassium channel 2 (Homo sapiens), P48051; HEK293-GIRK2 thallium flux, Thallos fluorescence; calls only for hits at 25 µM; 63,000 compounds, 0.05% hits; AID 1259325, 2017;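 active = among the strongest 0.2% of first-round signals and kept after retests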;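 also: first round at about 10 µM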
Target sequence (P48051 whole entry, looked up): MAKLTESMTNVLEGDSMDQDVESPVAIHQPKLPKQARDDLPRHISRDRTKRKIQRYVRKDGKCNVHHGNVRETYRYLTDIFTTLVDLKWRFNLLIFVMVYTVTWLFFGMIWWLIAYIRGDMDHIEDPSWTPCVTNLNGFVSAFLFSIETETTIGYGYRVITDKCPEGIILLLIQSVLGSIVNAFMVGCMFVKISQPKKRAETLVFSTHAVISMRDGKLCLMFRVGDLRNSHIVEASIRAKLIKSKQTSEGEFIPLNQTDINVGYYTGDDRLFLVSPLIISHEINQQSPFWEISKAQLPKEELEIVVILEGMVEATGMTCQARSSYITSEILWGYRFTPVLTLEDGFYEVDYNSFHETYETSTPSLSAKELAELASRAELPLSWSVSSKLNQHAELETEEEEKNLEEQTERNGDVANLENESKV
Calls only; i = inactive. Not all compounds are listed; count on the stated rates, not on these rows.

GIRK2 act | smiles
i | CCCCCCCCCCCCCCCCCCCCCCCCC(=O)NCCS(=O)(=O)O
i | O=C(CCCSc1ccccc1)Nc1nccs1
i | COCCSc1nnc(NC(=O)c2cn(C)nc2OC)s1
i | Cc1cccc(OCc2ccc(-c3nc(C#N)c(NCC4CCCO4)o3)o2)c1 (stereo not given)
i | COc1ccccc1-c1nnc(C2CCN(C(=O)C3CCCC3)CC2)s1
i | O=C(Cc1ccc(-n2c(=O)c3ccccc3n(Cc3ccccc3F)c2=O)cc1)NCc1cccs1
i | COCCN(Cc1ccncc1)C(=O)Cc1ccc(SC(C)C)cc1
i | CCOC(=O)Nc1nc(CC(=O)Nc2cc3ccccc3oc2=O)cs1
i | O=C(COc1ccc2ccccc2c1)NCC1CCN(C(=O)Oc2ccccc2)CC1
i | O=C(Cn1nc(-c2cccs2)ccc1=O)Nc1ccc([N+](=O)[O-])cc1
i | COc1ccc2c(c1)c(CC(=O)NCc1ccccn1)c(C)n2C(=O)c1ccc(Cl)cc1
i | O=C(Nc1nc2c(s1)CN(C(=O)Cc1ccc(F)cc1)CC2)NC1CCCC1
i | O=C(NC1CCCCC1)N(Cc1ccsc1)C1CC1
i | O=C(Nc1ccc(N2CCCS2(=O)=O)cc1)C1(c2ccc(Cl)cc2)CCCC1
i | CCCCNC(=O)Cn1cc(-c2nc(-c3ccc(OC)cc3)no2)ccc1=O
i | CCOC(=O)c1ccc(Oc2c(-c3ccc(OCC(=O)NN)cc3O)n[nH]c2C)cc1
i | FC(F)(F)c1cccc(CN2CCN(Cc3nc4ccccc4[nH]3)CC2)c1
i | COC(=O)C1CCCN1C(=O)c1cnn2c1OCCC2 (stereo not given)
i | COc1ccc(NC(=O)CSc2nccn(-c3ccc(C)cc3)c2=O)cc1Cl
i | C=C1C(O)CC2C(C(=O)OC)=CO[C@@H](O[C@@H]3O[C@H](CO)[C@@H](O)[C@H](O)[C@H]3O)C12 (stereo not given in full)
i | COc1ccc(CCNC(=O)C2CCN(c3ncnc4c3oc3ccccc34)CC2)cc1OC
i | O=C(Cc1nnc(-c2cccc(Br)c2)o1)NCc1ccccc1C(F)(F)F
i | COc1cc(NC(=O)Nc2ccc3c(c2)C(=O)N(C)c2ccccc2O3)cc(OC)c1
i | O=C1CC(c2nc3ccccc3o2)CN1c1ccc(F)cc1 (stereo not given)
i | CC(C)OC(=O)CCC/C=C\C[C@@H]1[C@@H](/C=C/C(=O)COc2cccc(C(F)(F)F)c2)[C@H](O)C[C@@H]1O

Random excerpt: two compounds from above, in no set order.
GIRK2 act | smiles
i | O=C(CCCSc1ccccc1)Nc1nccs1
i | O=C(Nc1ccc(N2CCCS2(=O)=O)cc1)C1(c2ccc(Cl)cc2)CCCC1

In another format: entries from further up
smiles,GIRK2 act
COCCSc1nnc(NC(=O)c2cn(C)nc2OC)s1,i
Cc1cccc(OCc2ccc(-c3nc(C#N)c(NCC4CCCO4)o3)o2)c1 (stereo not given),i
COc1ccccc1-c1nnc(C2CCN(C(=O)C3CCCC3)CC2)s1,i
O=C(Cc1ccc(-n2c(=O)c3ccccc3n(Cc3ccccc3F)c2=O)cc1)NCc1cccs1,i
COCCN(Cc1ccncc1)C(=O)Cc1ccc(SC(C)C)cc1,i
CCOC(=O)Nc1nc(CC(=O)Nc2cc3ccccc3oc2=O)cs1,i

Further results.
GIRK2 act | smiles
i | COC(=O)N1CCc2ccccc2C1C(=O)N1CCN(c2ncccn2)CC1 (stereo not given)
i | O=C(c1ccc(Cn2ccnc2)cc1)N1CCN(C(=O)C2CC2c2cccs2)CC1 (stereo not given)
i | CC1=NN(C)c2nc3c(c(=O)n(CCc4ccccc4)c(=O)n3C)n2C1
i | Cc1nc(-c2ccccc2Cl)sc1CNC(=O)C1CC(=O)N(c2cccc(F)c2)C1 (stereo not given)
i | CCCCn1c(SCC(=O)Nc2ccccc2C(F)(F)F)nc2c(sc3ncccc32)c1=O
i | Cc1c(C(=O)N2CCN(c3ccccc3Cl)CC2)nnn1-c1nc2c(s1)CCCC2
i | O=C(CCCn1nnc2ccccc2c1=O)Nc1ccc(Br)cc1F
i | COc1ccc(CNC(=O)Cn2c(C)cc(C)c(-c3nc(-c4ccc5c(c4)OCO5)no3)c2=O)cc1
i | COc1ccc(S(=O)(=O)NCC(O)c2ccc3c(c2)CCO3)cc1OC (stereo not given)
i | COc1cccc2sc(N(CCCn3ccnc3)C(=O)c3cccs3)nc12
i | O=S(=O)(c1cccc(Cl)c1)N1CCN(CC(O)C2CC2)CC1 (stereo not given)
i | COc1ccc(/C=N\NC(=O)CNC(=O)c2ccc(S(=O)(=O)N3CCOCC3)cc2)c(OC)c1
i | CCOc1ccc(CC(=O)Nc2c(C)nc3sc(C)c(C)n3c2=O)cc1
i | O=S(=O)(c1cccnc1)N1CCN(CC(O)c2ccco2)CC1 (stereo not given)
i | Cc1ccc(C)c(N2CCN(C(=O)CCc3nnc4n(Cc5ccc(F)cc5)c(=O)c5ccccc5n34)CC2)c1
i | O=C1CCCC(=O)N1CCS(=O)(=O)N1CCN(Cc2nc3ccccc3[nH]2)CC1
i | Cc1nnc(NC(=O)CN(C)c2nc3c(C(F)(F)F)cccc3s2)s1
i | O=C(NCCN1CCN(c2ccccc2)CC1)Nc1ccccc1C(F)(F)F
i | Cn1cc(C2=C(c3cn(CCCCCN)c4ccccc34)C(=O)NC2=O)c2ccccc21
i | CCOc1ccc(NC(=O)CCc2csc(NC(=O)c3ccc[nH]c3=O)n2)cc1
i | CCOC(=O)c1oc2cc(OC(=O)c3cccc([N+](=O)[O-])c3)ccc2c(=O)c1-c1ccc(OC)cc1
i | Cc1onc(-c2ccccc2Cl)c1C(=O)NCc1ccc(C(=O)c2cccs2)s1
i | CCC(C(=O)NC1CCN(CCOC)CC1)c1ccccc1 (stereo not given)
i | Cc1cc(C)c(NC(=O)Cn2nc3c(-c4nc(-c5ccccc5)no4)cccn3c2=O)c(C)c1
i | O=C(CCc1csc(NC(=O)NC2CCCCC2)n1)NCCc1c[nH]c2ccccc12
i | O=C(c1nnn(-c2ccc(C(F)(F)F)cc2)n1)N1CCC2(CC1)OCCO2
i | Cc1cc(NC(=O)c2ccccc2[N+](=O)[O-])n(-c2nc(-c3ccc(F)cc3)cs2)n1
i | Cn1cc(CC(=O)Nc2cc(N3CCOCC3)ncn2)c2ccccc21
i | O=C(NCC1CCN(C(=O)c2cccnc2)CC1)c1ccc(F)cc1Cl
i | CC(Oc1ccccc1)C(=O)NCc1cc(-c2ccncc2)n(C)n1 (stereo not given)
i | CCOc1ccccc1C(=O)NCc1cc(-c2ccncc2)n(C)n1
i | Cn1nc(-c2ccccc2)cc1C(=O)N1CCC(Oc2ccc(C(F)(F)F)cn2)CC1
i | COCC(C)NC(=O)c1nnn(-c2ccc(OC)cc2)n1 (stereo not given)
i | O=C(NCc1cccc2ccccc12)NCC(O)c1ccc2c(c1)CCO2 (stereo not given)
i | N#Cc1cccc(NC(=O)CSc2nc3c(c(=O)[nH]2)CN(Cc2ccccc2)CC3)c1
i | O=C(Cn1cc(-c2nnc(-c3ccccc3)o2)c2ccccc21)N1CCc2ccccc21
i | O=C(COc1ccccc1F)NCC1CCS(=O)(=O)C1 (stereo not given)
i | CSc1ccc(/C=C2\C=C(CC(=O)NCc3ccccc3)c3ccccc32)cc1
i | O=C(NCCCn1ccnc1)c1ccc2nc(-c3ccccc3)c(-c3ccccc3)nc2c1
i | Nc1c(C(=O)c2cccc(C#CCO)c2)cnn1-c1ccc(F)cc1
i | CN(C)C(CNC(=O)C(=O)Nc1cc(F)ccc1F)c1ccccc1Cl (stereo not given)
i | COc1ccc(OC)c(N2CCCn3c2nc2c3c(=O)n(CC(C)=O)c(=O)n2C)c1
i | O=C(c1ccc(=O)n(Cc2cccc(F)c2)n1)N1CCN(Cc2ccccc2)CC1
i | CCCCn1c(=O)[nH]c2c(C(=O)N3CCN(c4cccc(OC)c4)CC3)snc2c1=O
i | N#Cc1ccc(C(=O)Nc2ccc(Cl)c3ncsc23)cc1
i | CCOc1cccc2cc(C(=O)Nc3nnc(-c4sc(C)nc4C)o3)oc12
i | CCN(CC)S(=O)(=O)c1ccc(C(=O)Nc2cccc(-c3ccc(=O)n(C)n3)c2)cc1
i | COc1ccc(C2CC3C4NN=C(CCC(=O)NCc5ccccc5OC)N4C=CN3N2)cc1 (stereo not given)
i | CSc1cccc(NC(=O)Cn2cccc(-c3nc(-c4cnccn4)no3)c2=O)c1
i | Cc1cc(CNC(=O)C(=O)NCc2cccs2)c(C)o1

(more compounds)
GIRK2 act | smiles
i | COc1ccc(C(=O)CN2CCC(COCc3ccc(C#N)cc3)CC2)cc1
i | COc1cccc(-c2csc(-n3nc(C)cc3NC(=O)c3cccc(C)c3)n2)c1
i | CCN(CC)C(=O)Oc1ccc2c(c1)O/C(=C\c1cc(OC)c(OC)cc1OC)C2=O
i | O=C(C1CC1)N1CC(c2nc(-c3ccco3)no2)C1
i | CC(=O)Oc1ccc2c(c1)O/C(=C\C=C\c1ccccc1)C2=O
i | COc1ccc(Nc2cc(C(=O)N3CCSCC3)nc3c(OC)cccc23)cc1OC
i | O=C(Nc1ccc(-c2nc3ccccc3s2)cc1)Nc1c(F)cccc1F
i | O=C(NCc1cccc(I)c1)N1CCOCC1
i | Cc1cccc(OCC(O)Cn2c(N3CCN(Cc4ccccc4)CC3)nc3c2c(=O)n(C)c(=O)n3C)c1 (stereo not given)
i | CC(Oc1ccccc1)C(=O)Nc1nc(CN2CCc3ccccc3C2)cs1 (stereo not given)
i | CC12CC3(C)CC(C)(C1)CC(C(=O)NCC(=O)O)(C2)C3
i | COc1cccc(C2NC(=S)NC(C)=C2C(=O)Nc2ccc(C)c(C)c2)c1OC (stereo not given)
i | COc1ccc(S(=O)(=O)NCc2nn(C)c(=O)c3ccccc23)cc1C
i | Cc1cccc2c(=O)c(-c3ccccc3)c(NC(=O)c3ccco3)oc12
i | Cc1ccc2nc(N3CC(C)OC(C)C3)nc(-c3ccccc3)c2c1 (stereo not given)
i | O=C1C[C@H]2C[C@@H](O)[C@H](CC[C@@H](O)CCc3ccccc3)[C@H]2C1
i | O=S(=O)(NCC(O)c1ccoc1)c1cc(Cl)ccc1Cl (stereo not given)
i | Cc1nnc(NC(=O)CN2CCN(Cc3nc(C(C)(C)C)cs3)CC2)s1
i | CCc1ccc(S(=O)(=O)c2cnc(SCC(=O)Nc3cccc(Cl)c3)[nH]c2=O)cc1
i | Cc1ccc(N2CCCS2(=O)=O)cc1NC(=O)c1c(C)nc2ccccn12
i | O=C(Cn1cc(S(=O)(=O)N2CCCCCC2)ccc1=O)N1CCCc2ccccc21
i | CC1CCN(C(=O)C(C)n2nc(C3CC3)n(-c3ccccc3)c2=O)CC1 (stereo not given)
i | Cc1cn2c3c(=O)n(CCCc4ccccc4)c(=O)n(C)c3nc2n1CCCO
i | Cn1c(=O)c(Oc2ccc(F)cc2F)cc2cnc(NC3CCC(O)CC3)nc21 (stereo not given)
i | COCCn1c(=O)c2c(nc3n(-c4ccc(C)c(C)c4)c(-c4ccccc4)cn23)n(C)c1=O
i | COc1ccc(C(O)=C2C(=O)C(=O)N(Cc3cccnc3)C2c2ccccc2)cc1OC (stereo not given)
i | CCN1CCN(CCOc2ccc3c(=O)c(-c4ccc(OC)c(OC)c4)c(C)oc3c2)CC1
i | CCn1c(SC(C)C)nc2c1c(=O)n(C)c(=O)n2C
i | COc1ccccc1-c1ccc(N2CCN(C(=O)NCc3ccccc3)CC2)nn1
i | COc1cccc(NC(=O)Cn2cc(S(=O)(=O)N3CCCC3)ccc2=O)c1
i | CCCCCCCCCCCC(=O)CC(=O)N[C@H]1CCOC1=O
i | COc1ccccc1-c1coc2c3c(ccc2c1=O)OCN(c1ccc(F)c(Cl)c1)C3
i | CCCCS(=O)(=O)NCC1CCN(C(=O)c2ccoc2)CC1
i | CCCCCCCCCCCCCCCC(=O)SCCOP(=O)([O-])OCC[N+](C)(C)C
i | Cc1nnc(C2CCN(C(=O)c3cccc(-n4cnnn4)c3)CC2)s1
i | O=S(=O)(c1cccs1)N1CCCSCC1CN1CCCC1 (stereo not given)
i | N#Cc1ccc(-c2csc(NC(=O)NCc3cccs3)n2)cc1
i | CN(C/C=C/C#CC(C)(C)C)Cc1cccc2ccccc12
i | COc1ccc(C2=NN(C(=O)c3ccco3)C(c3cc(OC)c(OC)c(OC)c3)C2)cc1OC (stereo not given)
i | CC(C)=CCC[C@]1(C)C=Cc2c(ccc3c2[nH]c2ccc(C)cc23)O1
i | COc1ccc(CC(=O)Nc2c3c(nn2CC(=O)NCc2ccccc2)CSC3)cc1
i | COc1cn2c(cc1=O)C(=O)N(CCNC(=O)c1ccc[nH]c1=O)CC2
i | Cn1c(C2CCCN(S(C)(=O)=O)C2)nn(CC(=O)NCc2ccccc2Cl)c1=O (stereo not given)
i | COCCN1CCC(NC(=O)c2ccccc2Cl)CC1
i | COCCN(Cc1ccoc1)S(=O)(=O)c1c(F)cccc1F
i | Cc1nn(-c2nc3c(c(=O)n(CC(=O)C(C)(C)C)c(=O)n3C)n2C(C)C)c(C)c1C
i | O=C(Cc1cccs1)N1CCC(Oc2cnccn2)CC1
i | Cc1ccc(N2C(=O)c3ccc(C(=O)N4c5ccccc5CC4C)cc3C2=O)cc1 (stereo not given)

Five structures already listed, arranged by SMILES length, ascending:
GIRK2 act | smiles
i | CCn1c(SC(C)C)nc2c1c(=O)n(C)c(=O)n2C
i | CCCCCCCCCCCC(=O)CC(=O)N[C@H]1CCOC1=O
i | N#Cc1ccc(-c2csc(NC(=O)NCc3cccs3)n2)cc1
i | COc1ccccc1-c1ccc(N2CCN(C(=O)NCc3ccccc3)CC2)nn1
i | Cc1ccc(N2C(=O)c3ccc(C(=O)N4c5ccccc5CC4C)cc3C2=O)cc1 (stereo not given)
